High-throughput results (PubChem)
PK Bst – alters activity of Bacillus stearothermophilus pyruvate kinase. 51,000 tested, 1.2% active. Potency, µM. partly purified Bacillus stearothermophilus pyruvate kinase, luminescence ATP production; ribose 5-phosphate activator present at AC10; in the data active means potency below about 11 µM; inconclusive means mostly about 12 µM to 25 µM; inactive means weaker than that;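 the screen sought inhibitors and activators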;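 note: potency is the fitted concentration of half-maximal effect; scaled between full activation by ribose 5 phosphate and full inhibition by luteolin; about four in five hits inhibit and the cells do not say which; series up to 57 µM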
TsaE inh – YjeE (TsaE) inhibition, E. coli | AID 605 | Potency, µM | purified YjeE, fluorescence polarisation of a bound ADP probe | 71,000 tested, 0.05% active; active = well fitted falling curve; inconclusive = weaker or top-dose-only fall, or a rising curve; inactive = flat or poorly fitted curve;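 note: top concentration of the series not given in the record; excess ADP was the control for the full effect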
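Fluorescence polarization of a BODIPY Texas Red–ADP probe (2 uM) bound to purified YjeE (10 uM) was read after 15 min room-temperature incubation with compounds. Loss of polarization marks inhibitors; ADP serves as titrated control.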
* = called active by the depositor; i = inactive; ? = inconclusive; . = not tested or not shown. Only part of the results is shown (hit frequency here may not be typical).

structure	PK Bst	TsaE inh
O=C(c1cc(Cl)ccc1Cl)N1CCN(c2ccccn2)CC1	i	i
Cc1cc(C)n(CC(O)COc2cccc(OCC(O)Cn3nc(C)cc3C)c2)n1 (stereo not given)	.	i
COc1cccc(C2CC(C(F)(F)F)n3ncc(C(=O)O)c3N2)c1 (stereo not given)	>57	i
CCN1CCc2nc(NC(=O)Cc3ccc4c(c3)OCCO4)sc2C1	>57	i
O=C(NC(Cc1ccccc1)C(=O)O)c1ccc(S(=O)(=O)N2CCCC2)cc1 (stereo not given)	>57	i
O=C(CN1C2=NCCN2c2ccccc21)C12CC3CC(CC(C3)C1)C2	>57	i
COc1ccccc1N1CCN(C(=O)CSc2nc(-c3ccccc3)cc(=O)[nH]2)CC1	>57	i
Cc1nc2ccc(S(=O)(=O)Nc3ccccc3C)cc2s1	>57	i
Cn1c(SCC(=O)c2ccccc2)nnc1C1CC1	>57	i
COCCCNS(=O)(=O)c1ccc2c(c1)OCCO2	.	i
COc1cc(-c2nnc3sc(-c4cccnc4)nn23)cc(OC)c1OC	.	i
COc1cccc(Cn2nnc(C(=O)Nc3cc(C)ccc3OC)c2N)c1	.	i
Cn1c(=O)n(C)c2cc(C(=O)Nc3ccc4c(c3)OCO4)ccc21	.	i
CCCC(=O)NCCc1c2n(c3ccc(OC)cc13)Cc1ccccc1-2	.	i
Clc1ccc(OCc2nn3c(C4CCCCC4)nnc3s2)c(Cl)c1	>57	i
COc1cc(CC(=O)Nc2ncc(C)s2)cc(OC)c1OC	>57	i
Fc1ccc(N2CCN(C(c3cccs3)c3nnnn3CCc3ccccc3)CC2)cc1 (stereo not given)	>57	i
COc1cccc(Cn2c(=O)cnc3cnc(N4CCOCC4)nc32)c1	.	i
COc1cc(-c2nnc(Cn3cc(C(F)(F)F)ccc3=O)o2)cc(OC)c1OC	>57	i
O=C(O)C1C2C=CC3(CN(CC(O)COc4ccccc4)C(=O)C13)O2 (stereo not given)	.	i
CN(C(=O)c1cccnc1)c1nnc(-c2cccnc2)s1	>57	i
Cn1c(SCC(=O)N2CCN(c3ccccc3)CC2)nnc1-c1cc2ccccc2o1	>57	i
O=C(Cc1ccc(-n2c(=O)[nH]c3ccccc3c2=O)cc1)N1CCN(c2ccccc2)CC1	>57	i
CCn1c(CSc2ncccn2)nnc1SCC(=O)N1CCc2ccccc21	>57	i
Cn1c(Cn2c(=O)sc3ccccc32)nnc1SCc1ccccc1	.	i

Further records follow.
structure	PK Bst	TsaE inh
CCN(CC)CCNC(=O)c1ccc(N2CCCCC2)c(NS(=O)(=O)c2ccc(C)cc2)c1	i	i
CCC(C)(C)c1ccc(Oc2cccc(C(=O)O)c2)cc1	.	i
Cc1cc(C)nc(-n2nc(C)c(Oc3ccccc3O)c2C)n1	.	i
CCN1C(=O)/C(=C2\C=Cc3ccccc3N2CC)OC1=S	.	i
Cc1cccc(NC(=O)C2CCCN2S(=O)(=O)c2ccc(F)cc2)c1C (stereo not given)	>57	i
O=C(Nc1ccc(N2CCN(C(=O)c3ccco3)CC2)cc1)c1ccc2c(c1)OCO2	>57	i
CCN(CCCNC(=O)c1cn(CC)c2ccc(S(=O)(=O)N(C)C)cc2c1=O)c1cccc(C)c1	>57	i
COC(=O)[C@@]1(Cc2ccc(F)cc2)[C@H]2c3cc(C(=O)N(C)C)n(Cc4cc(C)n(C)n4)c3C[C@H]2CN1C(=O)c1ccccc1	.	i
O=S(=O)(Nn1cnnc1)c1ccccc1Cl	>57	i
COc1ccc(S(=O)(=O)N2CCC(C(=O)NCc3ccccn3)CC2)cc1C	>57	i
CC1(C)CC(NC(=O)C23CCC(C)(C(=O)C2)C3(C)C)CC(C)(C)N1 (stereo not given)	.	i
CC1(C)CC(=O)C2=C(C1)N(CC1CCCO1)C(=O)C2(O)C(F)(F)F (stereo not given)	>26	.
COc1ccc(OCC(=O)N2CCN(c3cccc(C(F)(F)F)c3)CC2)cc1	>57	i
ON(CCc1ccccn1)Cc1ccccc1	.	i
Clc1ccccc1-c1ccc2ncnc(N3CCNCC3)c2c1	.	i
NC(=O)CSc1nnc(COc2ccccc2)n1CCc1ccccc1	>57	i
O=C(O)CCCC(=O)Nc1c(F)c(F)c(F)c(F)c1F	.	i
COC(=O)c1cccc(NC(=O)CSc2nnc(COc3ccc(C#N)cc3)n2-c2ccccc2)c1	>57	i
COc1ccc2[nH]c(=O)c(CN(C(C)=O)c3cccc(C)c3)cc2c1	>57	i
Cc1nc2nc(C)c(CCC(=O)N3CCc4ccccc43)c(C)n2n1	>57	i
CCOC(=O)N1CCC(Nc2c(NCCN3CCN(Cc4ccccc4)CC3)c(=O)c2=O)CC1	>57	i
Cc1ccc(C)c2[nH]c(=O)c(CN(CC3CCCO3)S(=O)(=O)c3ccc4c(c3)OCCO4)cc12 (stereo not given)	>57	i
N#CCCCSc1nnc(CSc2nc3ccccc3s2)n1-c1ccccc1	?	i
COCCCNC(=O)C1C2C=CC3(CN(Cc4ccc(C)cc4)C(=O)C13)O2 (stereo not given)	>57	i
Cn1nnnc1CCOCCc1nnnn1C	>57	i

(cont.)
structure	PK Bst	TsaE inh
CCC(=O)N1c2ccc(S(=O)(=O)CCC(=O)Nc3nccs3)cc2CC1C (stereo not given)	>57	i
CCCCOC(=O)COc1ccc(Cl)cc1Cl	.	i
CCOC(=O)C1CCCN(c2ncnc3c2[nH]c2cccc(OC)c23)C1 (stereo not given)	.	i
CCn1c(SCC(=O)OC(C)C)nnc1-c1cccc(Cl)c1	>57	i
CC(C)(C)c1ccc(OCC(=O)O)cc1	>57	i
CCCc1nc2oc3c(NCCN4CCOCC4)ncnc3c2c2c1CCCC2	>57	i
CCOC(=O)C1=C(O)CSC1=Nc1ccc(Cl)cc1	.	i
O=C(CSc1nnc(CNC(=O)c2cccs2)o1)NCc1ccc(F)cc1	>57	i
c1n[nH]c(SCCCCSc2ncn[nH]2)n1	>57	i
C/C(=N/NC(=O)c1ccncc1)c1ccccc1Cl	.	i
O=C(Oc1c(Cl)cc(Cl)c2cccnc12)N1CCCCC1	.	i
CC(C)CC(C(=O)O)C(C)CC(=O)Nc1ccn(-c2ccccc2)n1 (stereo not given)	>26	.
Cc1ccccc1C1CC(c2ccc(F)cc2)Nc2nc(N)nn21 (stereo not given)	.	i
Cc1cccc(C(OC(=O)c2ccco2)C(=O)NCc2ccccc2)n1 (stereo not given)	>57	i
CC(C)(C)N(Cc1cc2ccccc2[nH]c1=O)C(=O)c1cccnc1	>57	i
CCOC(=O)C1CCCN(C(=O)CN2C(=O)COc3ccc(C(C)(C)C)cc32)C1 (stereo not given)	>57	i
CCOC(=O)c1c(C)n(C)c2ccc(OCC(O)CN3C(=O)c4ccccc4S3(=O)=O)cc12 (stereo not given)	>57	i
CCOc1ccccc1C1CC(c2ccc(Br)cc2)Nc2nc(N)nn21 (stereo not given)	.	i
COc1ccc(CN(C(=O)c2ccco2)c2ccc(Br)cc2)cc1OC	>57	i
Cc1ccc(CN2C(=O)CCC2C(=O)NC(C)C)cc1 (stereo not given)	>57	i
CCOCCCN1CC(C(=O)NCCc2ccc(C)cc2)CC1=O (stereo not given)	>57	i
CCOC(=O)CN(C(=O)CNC(=O)c1ccco1)C(C(=O)NC1CCCC1)c1ccccc1OCC (stereo not given)	>57	i
O=C(CCn1cnc2ccccc2c1=O)Nc1cccc(Cl)c1	>57	i
O=C(NCc1ccc(F)cc1)C1CCN(S(=O)(=O)N2CCCCC2)CC1	>57	i
CCOC(=O)N1CCC(n2c(SCC(=O)Nc3nccs3)nc3ccsc3c2=O)CC1	>57	i

Single records (already shown). Screens in order: PK Bst | TsaE inh
COc1ccc(CN(C(=O)c2ccco2)c2ccc(Br)cc2)cc1OC in the list: >57 | i
CCOC(=O)C1=C(O)CSC1=Nc1ccc(Cl)cc1 in the list: . | i
O=C(CSc1nnc(CNC(=O)c2cccs2)o1)NCc1ccc(F)cc1 in the list: >57 | i
CCCCOC(=O)COc1ccc(Cl)cc1Cl in the list: . | i

Another view of part of the listing above:
Every second line gives: PK Bst	TsaE inh
CCOC(=O)C1CCCN(C(=O)CN2C(=O)COc3ccc(C(C)(C)C)cc32)C1 (stereo not given)
→ >57	i
CCOC(=O)c1c(C)n(C)c2ccc(OCC(O)CN3C(=O)c4ccccc4S3(=O)=O)cc12 (stereo not given)
→ >57	i

Further structures follow:
structure	PK Bst	TsaE inh
Cc1ccc(S(=O)(=O)N2CCOCC2)cc1C(=O)N1CCOCC1	>57	i
CC(C)C(=O)Nc1ccc2c(c1)nc1n2CCSC1	>57	i
c1ccc(Nc2nc3ccccc3[nH]2)nc1	i	i
Cn1cccc1Cc1nnc(SCC(=O)Nc2ccc(F)cc2F)n1-c1ccc(F)cc1	.	i
COc1cc(OC)c(/C=C2/C(=O)Nc3ccccc32)c(OC)c1	.	i
N/C(CC(=O)NCCOc1ccccc1)=N\O	>57	i
COc1cccc(-c2cc(C(=O)NCc3ccc(Cl)cc3)no2)c1	>57	i
O=C(Nc1cccnc1N1CCOCC1)c1cc2ccccc2oc1=O	>57	i
CN1C(=O)N(C)C2C1N(C)S(=O)(=O)N2C (stereo not given)	>57	i
CN(C)C(=O)c1nnc(Cc2ccc(Cl)cc2)o1	.	i
Cc1noc(NS(=O)(=O)c2ccc(N3C(=O)c4ccccc4C3=O)cc2)c1C	>57	i
O=C(CCCn1c(SCC(=O)NC2CCCC2)nc2ccccc2c1=O)NCC1CCCO1 (stereo not given)	>57	i
COC(=O)c1c(-c2ccc(F)cc2)noc1N	.	i
CCOC(=O)C1(N(CC)CC)Sc2cc(C)ccc2NC1=O (stereo not given)	>57	i
CCCn1c(C)nc2c(NC3CCN(Cc4ccccc4)CC3)nc(C)nc21	.	i
NCCNC(=O)c1ncsc1-c1cccc(F)c1	.	i
O=C(NCc1ccco1)c1cc(-c2ccccn2)nc2ccccc12	>11	i
COc1ccc(N(C(=O)c2ccco2)S(=O)(=O)c2cccs2)cc1	>57	i
Cc1ccc(NC(=O)CNS(=O)(=O)c2cccs2)cc1F	>57	i
Cc1cccc(OCCN2CSC(=S)N(C)C2)c1	>26	.
Cc1[nH]c2ccccc2c1C(=O)CSCC(=O)O	>57	i
Nc1ncnc2c1ncn2CCN1CCOCC1	>57	i
CCOC(=O)Cn1c(=O)n(Cc2ccco2)c(=O)c2ccc(C(=O)NCCc3ccccc3)cc21	>57	i
Cn1c(-c2ccc3nc(N)sc3c2)nc2cc(N)ccc21	i	i
O=C(c1noc2c1CCCCC2)N1CCOCC1	>57	i

Continuation.
structure	PK Bst	TsaE inh
COc1ccc(NC(=O)c2nc3nc(C)cc(C(F)F)n3n2)cc1OC	.	i
O=c1c2c(-c3ccco3)csc2nc(SCc2cn3cccnc3n2)n1-c1ccccc1	>57	i
O=C(Nc1cccc(Cl)c1)Nn1cnnc1	.	i
NC(=O)C/C=C\CC(N)=O	.	i
COc1ccccc1C1C(C#N)=C(N)Oc2cc(C)n(Cc3ccccn3)c(=O)c21 (stereo not given)	>26	.
COc1ncc2nc(-c3cccs3)c(=O)n(CCc3ccccc3)c2n1	.	i
Cc1ccc2c(c1)C(=O)[C@@]1(O)CCN(c3ccccc3)C1=N2	.	i
C(=N\n1cnnc1)/c1ccc(OCc2ccccc2)cc1	.	i
CCNC(=O)CN(c1ccc(C)cc1)S(=O)(=O)c1ccc(SC)cc1	>57	i
CCCS(=O)(=O)N1CCC(C(=O)NC2CCC(C)CC2)CC1 (stereo not given)	>57	i
O=C(O)Cc1c(O)ccc2ccccc12	.	i
Cc1ccc(CNC(=O)CSc2n[nH]c(N)n2)cc1	>57	i
CC(C)C[C@@H](CC(=O)N[C@H](CC(=O)N[C@@H]1CCNC[C@H]1C(=O)N[C@H](CC(=O)N[C@@H](CCC(=O)O)CC(=O)O)Cc1c[nH]c2ccccc12)C(C)C)NC(=O)[C@@H]1CCCC[C@H]1N	.	i
c1ccc(-n2nnnc2Oc2ccc(-n3ccnc3)cc2)cc1	.	i
CCN(CC)CCN1C(=O)C(=O)/C(=C(/O)c2c(C)[nH]c(C(=O)OC)c2C)C1c1ccccc1 (stereo not given)	>26	.
Cc1cc(NC(=O)c2sccc2C)n(-c2cccc(Cl)c2)n1	.	i
Cc1cccc(CNc2nc(-c3cccnc3)nc3ccccc23)c1	.	i
CCC1CCCCN1CCNC(=O)CNS(=O)(=O)c1ccc2nc(C)sc2c1 (stereo not given)	>57	i
Cc1ccc(-n2ncc3c(=O)n(CC(=O)NC4CCCCC4)cnc32)cc1	.	i
CSCC[C@H](NC(=O)NCc1cccs1)C(=O)O	>57	i
O=C1CC(c2ccc(Cl)cc2)n2nc(N3C(=O)CCC3=O)nc2N1 (stereo not given)	>57	i
O=C(Nc1ccc2c(c1)OCCO2)c1cc(-n2cnnc2)ccc1Cl	>57	i
CC1(C)CC(=O)C2=C(C1)OC(N)=C(C#N)C2c1ccc(OC(=O)N2CCOCC2)cc1 (stereo not given)	.	i
CCCn1c(-c2ccc(F)cc2)nc2c(NCCCN3CCOCC3)nc(C)nc21	.	i
CC(=O)N1CCC2(CC1)C(C#N)=C(N)Oc1n[nH]c(C(F)(F)F)c12	>26	.
O=C(CSc1nc2ccccc2c(=O)n1Cc1ccco1)NCc1ccccc1	>57	i
